Ecoli rRNA inh: reduced GFP signal of wild-type E. coli, primary screen, bacterial rRNA inhibitor project, GFP/RFP fluorescence, OD600, single point | GFP signal change (wild-type ribosome), % (no concentration beside the values) | E. coli WT GFP vs humanized-ribosome RFP mutants, 24 h; hits give low values; DMSO median 0, no signal -100 | 1.6% of 350,000 active;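 active = significant combined selectivity score with lowered wild-type GFP, culture density cut under 30%, mutant RFP and density less affected; inactive = any of these conditions unmet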; also: one replicate is shown; some compounds called inactive have numbers as strong as hits
ALR inh: inhibitors of human ALR sulfhydryl oxidase, primary screen, biochemical, H2O2 detection, HRP-luminol luminescence, single point; FAD-linked sulfhydryl oxidase ALR (Homo sapiens), P55789; purified ALR, DTT oxidation; inhibition, % (no concentration beside the values); 3.8% of 290,000 active; AID 485317, 2010;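 active = mean and each replicate at 75% or more; inconclusive = only one of the two met; inactive = neither met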;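 also: stock transfer was 7.5 nL into about 7.5 µL; 0% = neutral wells and 100% = wells with inactivated enzyme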
Target sequence (P55789 whole entry, looked up): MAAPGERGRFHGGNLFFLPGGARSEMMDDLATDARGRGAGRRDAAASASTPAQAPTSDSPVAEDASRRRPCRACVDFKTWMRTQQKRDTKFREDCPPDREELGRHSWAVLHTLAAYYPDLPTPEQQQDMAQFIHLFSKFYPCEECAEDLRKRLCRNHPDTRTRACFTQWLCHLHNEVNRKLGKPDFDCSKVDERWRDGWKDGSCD
Calb FLC: C. albicans growth inhibition with fluconazole, primary screen, CaCi-2 strain, Alamar Blue fluorescence | C. albicans CaCi-2 (fluconazole-resistant clinical isolate) + fluconazole, 48 h | growth inhibition, % (test concentration not listed) | 0.57% of 300,000 active;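 active = most replicates above 75%; inconclusive = exactly half above 75%; inactive = most below 75%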;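 also: all wells also contain fluconazole at 8 µg/ml as a sub-toxic cotreatment; 0% = median of DMSO wells and 100% = median of geldanamycin control wells; wells of about 8 µL received 7.5 nL stock; the first replicate is given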
T cruzi repl: inhibitors of intracellular T. cruzi growth, primary screen, luminescence, NIH3T3 host cells; inhibition, % (no concentration beside the values); T. cruzi beta-gal in NIH3T3, 90 h; 1.4% of 300,000 active;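 active = mean inhibition across valid replicates above about 55%, limit read from the data; inconclusive = mean below that limit but half or more replicates reach it; inactive = mean below it, under half of replicates reach it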;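 also: signal also drops with host cell toxicity which is not excluded here; 0% = plate median of DMSO wells and 100% = zero luminescence signal; higher percent means less beta-gal luminescence so fewer parasites; stock transfer was 50 nL into about 50 µL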
AF4-AF9 inh: inhibitors of AF4 peptide binding to AF9, primary screen, biochemical, AlphaScreen, biotin-AF4 peptide, FLAG-AF9, single point; Protein AF-9 (Homo sapiens), P42568; 0.47% of 350,000 active; AID 651704, 2012; inhibition, % at 10 µM;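 active = every replicate reaching a set inhibition limit, whatever the replicate mean, cut at about 25% in these data; inconclusive = mean inhibition reaches that limit but some replicates miss it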;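 also: 0% = plate neutral control median and 100% = total signal loss; the record names both 10 and 1 µM as test concentration; the first replicate is given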
Target sequence (P42568 whole entry, looked up): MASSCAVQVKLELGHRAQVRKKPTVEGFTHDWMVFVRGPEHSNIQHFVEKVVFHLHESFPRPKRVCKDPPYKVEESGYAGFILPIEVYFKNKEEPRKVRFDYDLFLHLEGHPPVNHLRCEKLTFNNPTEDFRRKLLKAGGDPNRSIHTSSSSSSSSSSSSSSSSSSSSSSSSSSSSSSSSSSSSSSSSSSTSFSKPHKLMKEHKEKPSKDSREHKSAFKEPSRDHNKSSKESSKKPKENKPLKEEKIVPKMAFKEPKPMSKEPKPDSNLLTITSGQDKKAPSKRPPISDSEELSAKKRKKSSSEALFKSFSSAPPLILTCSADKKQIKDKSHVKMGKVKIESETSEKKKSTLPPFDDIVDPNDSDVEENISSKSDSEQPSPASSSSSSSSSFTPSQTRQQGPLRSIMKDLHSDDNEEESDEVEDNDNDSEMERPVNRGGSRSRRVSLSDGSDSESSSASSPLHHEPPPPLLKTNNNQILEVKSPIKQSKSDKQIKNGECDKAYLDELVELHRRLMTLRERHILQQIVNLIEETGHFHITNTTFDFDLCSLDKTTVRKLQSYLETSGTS
RanGTP-Impb inh: inhibitors of RanGTP-importin-beta interaction, primary screen, biochemical, FRET, CFP-Ran, YFP-importin-beta, homogeneous; AID 2216, 2009; cell-free CFP-Ran/YFP-importin-beta FRET ratio; Ran GTPase (GTP-bound) - importin-beta complex; inhibition, % (no concentration beside the values); 1.1% of 300,000 active;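 active = most replicates above 15%; inconclusive = exactly half above 15%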;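 also: 0% = DMSO wells and 100% = Ran loaded with GDP instead of GTP; wells of about 40 µL received 100 nL stock; the first replicate is given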
Beta apoptosis: inhibitors of cytokine-induced beta cell apoptosis, primary screen, luminescence | protection from apoptosis, % (test concentration not listed) | INS-1E cytokine-induced death, ATP luminescence, 48 h; percent of positive-control rescue, neutral wells zero | 0.8% of 300,000 active;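 active = all replicates at 75% or more, or half of them and the mean; inconclusive = half reach 75% but not the mean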;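 also: 0% = cytokine-treated negative control wells and 100% = positive control rescue; higher means more ATP so stronger rescue from cytokine killing; wells of about 40 µL received 100 nL stock; the first replicate is given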
FGF22 binding: binders of human FGF22 protein, primary screen, FGF22 synaptogenesis inhibitor project, biophysical, thermal shift, single point | Fibroblast growth factor 22 (Homo sapiens), Q9HCT0 | recombinant FGF22 thermal shift, SYPRO orange fluorescence; percent of sucrose octasulfate shift, DMSO zero | calls only at 9.99 µM | 1.5% of 340,000 active | AID 651658, 2012;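 active = melting point raised past a set limit in the mean and every replicate; inconclusive = no clear call; three in four hits are not shown here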
Target sequence (Q9HCT0 whole entry, looked up): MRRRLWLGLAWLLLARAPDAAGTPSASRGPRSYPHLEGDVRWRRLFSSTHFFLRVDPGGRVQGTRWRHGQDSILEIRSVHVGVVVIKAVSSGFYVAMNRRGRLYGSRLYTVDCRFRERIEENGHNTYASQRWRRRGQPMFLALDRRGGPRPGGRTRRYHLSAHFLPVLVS
Ecoli rRNA inh OD600: also measured in Ecoli rRNA inh; calls as there; OD600 change, %; measured here: OD600 growth;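 optical density of the mix in the first replicate; 0 = DMSO median and -100 = no signal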
Ecoli rRNA inh RFP: also measured in Ecoli rRNA inh; calls as there; RFP signal change, %; measured here: RFP humanized mutant strains;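 first replicate; 0 = DMSO median and -100 = no signal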
Active calls of the source: *. Some of the compounds tested; the hit share may differ from the screen's.

How did CC(C)C(=O)Nc1cccc(NC(=O)c2cc3ccccc3o2)c1 do in these assays?
ALR inh: -11; Calb FLC: -1; T cruzi repl: 18; RanGTP-Impb inh: 1.0; Beta apoptosis: 0

How did COc1ccc(C2CC2C(C)=O)cc1 (stereo not drawn) do in these assays?
Ecoli rRNA inh: 18; ALR inh: -11; Calb FLC: -3; T cruzi repl: -15; AF4-AF9 inh: -2.0; RanGTP-Impb inh: 1.9; Beta apoptosis: -6; Ecoli rRNA inh OD600: 12; Ecoli rRNA inh RFP: 1.3

How did CC(=O)Nc1ccccc1OCC(=O)c1ccc2c(c1)OCO2 do in these assays?
ALR inh: -23; Calb FLC: -2; T cruzi repl: -11; RanGTP-Impb inh: 5.4; Beta apoptosis: 6

How did CC(O)CNc1nc2ccccc2n1CC(=O)NCC(F)(F)F (stereo not drawn) do in these assays?
Ecoli rRNA inh: 7; Calb FLC: 13; T cruzi repl: -12; AF4-AF9 inh: -0.9; RanGTP-Impb inh: 0.7; Beta apoptosis: 0; FGF22 binding: inactive; Ecoli rRNA inh OD600: 3; Ecoli rRNA inh RFP: -1.5

How did Cc1cc(C)c2c(NC(=S)Nc3ccccc3)n[nH]c2n1 do in these assays?
Ecoli rRNA inh: -4; ALR inh: 5; Calb FLC: 0; T cruzi repl: -8; AF4-AF9 inh: -2.9; RanGTP-Impb inh: 2.5; Beta apoptosis: 1; Ecoli rRNA inh OD600: -1; Ecoli rRNA inh RFP: 3.1

Results for NC(=O)CC(NC(=O)c1ccccc1)c1ccc(NCC2CC2)c([N+](=O)[O-])c1 (stereo not drawn) ?
Ecoli rRNA inh: 0; ALR inh: -3; Calb FLC: -4; T cruzi repl: -9; AF4-AF9 inh: -0.3; RanGTP-Impb inh: -0.6; Beta apoptosis: -9; FGF22 binding: inactive; Ecoli rRNA inh OD600: 4; Ecoli rRNA inh RFP: -2.0

What do the screens show for `Cc1cc(C)c2cc3c(N)c(C(=O)N4CCOCC4)sc3nc2c1`?
Ecoli rRNA inh: 0; ALR inh: 13; Calb FLC: 12; T cruzi repl: 13; AF4-AF9 inh: -0.4; RanGTP-Impb inh: 2.8; Beta apoptosis: 1; FGF22 binding: inactive; Ecoli rRNA inh OD600: -6; Ecoli rRNA inh RFP: -1.8

How did COC(=O)c1cc2n(n1)CCN(Cc1ccc(OC)cc1)C2=O do in these assays?
ALR inh: 4; Calb FLC: -16; T cruzi repl: -15; RanGTP-Impb inh: -2.3; Beta apoptosis: -3

How did C=CCOC(=O)C1=C(C)NC(C)=C(C(=O)OCC=C)C1c1ccco1 do in these assays?
Ecoli rRNA inh: -4; ALR inh: 10; Calb FLC: 0; T cruzi repl: 30; AF4-AF9 inh: 4.5; RanGTP-Impb inh: 3.0; Beta apoptosis: 8; FGF22 binding: inactive; Ecoli rRNA inh OD600: 1; Ecoli rRNA inh RFP: 2.8

Results for CCOC(=O)c1sc(NC(=O)c2ccccc2OC)nc1C ?
Ecoli rRNA inh: 5; ALR inh: -8; Calb FLC: -7; T cruzi repl: -1; AF4-AF9 inh: -6.7; RanGTP-Impb inh: 6.9; Beta apoptosis: 25; FGF22 binding: inactive; Ecoli rRNA inh OD600: 8; Ecoli rRNA inh RFP: -1.8

Results for C/C(=N\N=C1\NC(=O)C(Cc2ccccc2)S1)c1ccccc1 (stereo not drawn) ?
Ecoli rRNA inh: -52*; ALR inh: 3; Calb FLC: 16; T cruzi repl: 15; AF4-AF9 inh: 2.6; RanGTP-Impb inh: 6.6; Beta apoptosis: -4; FGF22 binding: inactive; Ecoli rRNA inh OD600: -38*; Ecoli rRNA inh RFP: -16*

Results for COc1ccc(C)cc1NC(=O)CSc1nnc(COc2ccccc2)n1Cc1ccco1 ?
ALR inh: inconclusive; Calb FLC: 14; T cruzi repl: 30; RanGTP-Impb inh: -1.6; Beta apoptosis: 11

What do the screens show for `C=CCn1c(SCC(=O)c2cccs2)nc2sc(C)c(C)c2c1=O`?
ALR inh: -6; Calb FLC: 5; T cruzi repl: 36; RanGTP-Impb inh: 1.9; Beta apoptosis: -4

Results for N=C1C(c2nc3ccccc3c(=O)[nH]2)=C(O)CN1CCc1ccccc1 ?
ALR inh: -13; Calb FLC: 15; T cruzi repl: -4; RanGTP-Impb inh: inconclusive; Beta apoptosis: -9

What do the screens show for `COc1cccc(CNC(=O)c2ccc(C)c(S(=O)(=O)N3CCOCC3)c2)c1`?
Ecoli rRNA inh: -9; ALR inh: 1; Calb FLC: 7; T cruzi repl: -1; AF4-AF9 inh: -1.8; RanGTP-Impb inh: -6.0; Beta apoptosis: 4; FGF22 binding: inactive; Ecoli rRNA inh OD600: -17; Ecoli rRNA inh RFP: -2.9

What do the screens show for `COC(=O)C1=C(N)Oc2c(oc(CO)cc2=O)C1c1ccccc1F` (stereo not drawn)?
ALR inh: -2; Calb FLC: -20; T cruzi repl: -8; RanGTP-Impb inh: 0.3; Beta apoptosis: 4

What do the screens show for `CCN(CC(=O)NCc1cccs1)S(=O)(=O)c1ccc(F)c(F)c1F`?
Ecoli rRNA inh: 2; ALR inh: -5; Calb FLC: 2; T cruzi repl: 2; AF4-AF9 inh: -6.8; RanGTP-Impb inh: 4.6; Beta apoptosis: -4; FGF22 binding: inactive; Ecoli rRNA inh OD600: 5; Ecoli rRNA inh RFP: -0.6

Results for COc1ccc(S(=O)(=O)NCc2ccccn2)cc1NC(=O)c1ccc(Cl)cc1 ?
Ecoli rRNA inh: -8; ALR inh: -11; Calb FLC: 3; T cruzi repl: -2; AF4-AF9 inh: -7.2; RanGTP-Impb inh: 1.1; FGF22 binding: inactive; Ecoli rRNA inh OD600: -3; Ecoli rRNA inh RFP: 1.9

What do the screens show for `c1cc2c(c(NCc3ccncc3)c1)CCCC2`?
ALR inh: 99*; Calb FLC: -2; T cruzi repl: -16; RanGTP-Impb inh: 6.6; Beta apoptosis: -1

What do the screens show for `Cc1ccc(C(=O)NNC(=O)C2CCN(Cc3ccccc3)CC2)cc1`?
ALR inh: 2; Calb FLC: -4; T cruzi repl: 11; RanGTP-Impb inh: -1.1; Beta apoptosis: -6

How did Cn1cccc1C(C#N)c1cccc(F)c1C#N (stereo not drawn) do in these assays?
Ecoli rRNA inh: 1; ALR inh: 4; Calb FLC: -2; T cruzi repl: 15; AF4-AF9 inh: 2.4; RanGTP-Impb inh: 11; Beta apoptosis: -1; FGF22 binding: inactive; Ecoli rRNA inh OD600: -2; Ecoli rRNA inh RFP: 8.7

What do the screens show for `CSc1ccccc1NC(=O)Cn1nnc(-c2ccc(S(C)(=O)=O)cc2)n1`?
Ecoli rRNA inh: 6; ALR inh: -7; Calb FLC: 24; T cruzi repl: 0; AF4-AF9 inh: -0.5; RanGTP-Impb inh: -1.8; Beta apoptosis: -7; FGF22 binding: inactive; Ecoli rRNA inh OD600: 8; Ecoli rRNA inh RFP: 1.5

Results for COc1ccc(-n2c(SC3CCOC3=O)nc3ccccc3c2=O)cc1OC (stereo not drawn) ?
ALR inh: -8; Calb FLC: 1; T cruzi repl: -1; RanGTP-Impb inh: -2.4; Beta apoptosis: -2

How did O=C(Nc1ccccc1C(F)(F)F)NC1CCCCC1 do in these assays?
Ecoli rRNA inh: 13; ALR inh: -2; Calb FLC: 4; T cruzi repl: -3; AF4-AF9 inh: 1.3; RanGTP-Impb inh: 0.4; Beta apoptosis: 2; FGF22 binding: inactive; Ecoli rRNA inh OD600: 13; Ecoli rRNA inh RFP: -8.3

Results for CC(CN1CCCC1)OC(=O)c1ccc(Cl)cc1Cl (stereo not drawn) ?
Ecoli rRNA inh: -2; ALR inh: -6; Calb FLC: -47; T cruzi repl: -18; AF4-AF9 inh: -3.1; RanGTP-Impb inh: 5.9; FGF22 binding: inactive; Ecoli rRNA inh OD600: -2; Ecoli rRNA inh RFP: -1.0

What do the screens show for `Cc1ccsc1/C=C1/SC(=O)N(CC(=O)N2CCCC2)C1=O`?
Ecoli rRNA inh: -1; ALR inh: -5; Calb FLC: -3; T cruzi repl: 7; AF4-AF9 inh: 0.1; RanGTP-Impb inh: 5.8; Beta apoptosis: 5; FGF22 binding: inactive; Ecoli rRNA inh OD600: 2; Ecoli rRNA inh RFP: 6.0

How did Cc1nnc(SCc2ccccn2)n(N)c1=O do in these assays?
Ecoli rRNA inh: 1; ALR inh: 4; Calb FLC: -6; T cruzi repl: -12; AF4-AF9 inh: -0.9; RanGTP-Impb inh: 3.0; FGF22 binding: inactive; Ecoli rRNA inh OD600: 11; Ecoli rRNA inh RFP: -1.2

Results for Cc1c(/C=C(\C#N)C(=O)NCc2ccccc2)cc(C#N)n1C ?
Ecoli rRNA inh: 6; ALR inh: -5; Calb FLC: 5; T cruzi repl: -8; AF4-AF9 inh: -0.3; RanGTP-Impb inh: -1.2; Beta apoptosis: -7; FGF22 binding: inactive; Ecoli rRNA inh OD600: 5; Ecoli rRNA inh RFP: -0.4

Results for O=[N+]([O-])c1cc(Cl)ccc1N1CCCCC1 ?
Ecoli rRNA inh: 19; Calb FLC: -9; T cruzi repl: -14; AF4-AF9 inh: -1.4; RanGTP-Impb inh: -0.3; Beta apoptosis: -2; FGF22 binding: inactive; Ecoli rRNA inh OD600: 6; Ecoli rRNA inh RFP: 2.6

How did CC(C)COc1ccc(C(=O)N/N=C/c2ccoc2)cc1 do in these assays?
Ecoli rRNA inh: -13; ALR inh: 0; Calb FLC: 3; T cruzi repl: -8; AF4-AF9 inh: -0.6; RanGTP-Impb inh: -0.6; Beta apoptosis: -3; FGF22 binding: inactive; Ecoli rRNA inh OD600: -28; Ecoli rRNA inh RFP: -5.9

What do the screens show for `Cc1ccccc1-c1nnc(SCC(=O)Nc2c(C)n(C)n(-c3ccccc3)c2=O)o1`?
ALR inh: 1; Calb FLC: -18; T cruzi repl: 2; RanGTP-Impb inh: 4.0; Beta apoptosis: -1

How did Cc1ccc(S(=O)(=O)c2c(C)cc(-c3ccccc3)[nH]c2=O)cc1 do in these assays?
ALR inh: 16; Calb FLC: 2; T cruzi repl: -6; RanGTP-Impb inh: 6.0; Beta apoptosis: -2

How did Cc1cc(=O)n(C)c(=O)n1CCCCCCN1CCCC1 do in these assays?
ALR inh: -1; Calb FLC: -1; T cruzi repl: 13; RanGTP-Impb inh: -0.7; Beta apoptosis: -4

How did O=C(CCN1C(=O)C2(OCCO2)c2ccccc21)c1ccccc1 do in these assays?
ALR inh: 19; Calb FLC: 0; T cruzi repl: -6; RanGTP-Impb inh: 0.3; Beta apoptosis: 3
